# High-throughput results from PubChem BioAssay.
# Rango-impB inh: prevents formation of the Rango-importin beta complex. Q14974. Rango CFP/YFP FRET sensor + importin beta, 45 min. Potency, µM (top dose mostly 92.2 µM), without a hit: top-dose inhibition of complex formation. actives 0.031% (n = 340,000). AID 540263; active = rising FRET ratio curve, often small or poorly fitted; inconclusive = mostly compound fluorescence or quenching in the first reads; inactive = flat curves in all reads;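 also: potency is read from the fitted curve at half-maximal effect; 0% = DMSO wells and 100% = buffer wells lacking importin beta; nearly all actives have a fitted effect of over 15% in size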
# Target sequence (Q14974 whole entry, looked up): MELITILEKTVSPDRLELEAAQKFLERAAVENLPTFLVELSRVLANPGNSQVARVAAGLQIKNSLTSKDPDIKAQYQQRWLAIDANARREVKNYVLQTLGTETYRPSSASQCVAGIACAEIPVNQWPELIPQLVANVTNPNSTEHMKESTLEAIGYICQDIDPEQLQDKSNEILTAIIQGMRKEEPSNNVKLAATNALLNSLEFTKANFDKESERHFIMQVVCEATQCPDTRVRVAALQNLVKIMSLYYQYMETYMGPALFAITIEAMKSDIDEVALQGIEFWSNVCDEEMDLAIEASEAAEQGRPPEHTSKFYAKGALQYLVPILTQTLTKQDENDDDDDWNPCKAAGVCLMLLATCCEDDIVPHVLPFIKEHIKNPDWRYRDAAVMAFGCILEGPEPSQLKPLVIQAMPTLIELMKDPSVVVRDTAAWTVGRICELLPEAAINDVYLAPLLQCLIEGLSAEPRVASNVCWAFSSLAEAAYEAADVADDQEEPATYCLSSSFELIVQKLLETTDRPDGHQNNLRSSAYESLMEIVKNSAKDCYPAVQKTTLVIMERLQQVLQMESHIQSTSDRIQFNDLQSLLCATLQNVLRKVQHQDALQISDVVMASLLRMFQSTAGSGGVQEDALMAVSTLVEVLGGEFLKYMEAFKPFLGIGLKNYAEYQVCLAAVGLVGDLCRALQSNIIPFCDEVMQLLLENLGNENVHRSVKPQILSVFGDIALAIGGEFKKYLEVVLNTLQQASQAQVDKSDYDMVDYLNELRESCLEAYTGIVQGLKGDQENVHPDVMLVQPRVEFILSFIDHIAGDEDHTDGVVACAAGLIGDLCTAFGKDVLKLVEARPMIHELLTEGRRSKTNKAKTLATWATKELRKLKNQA
#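 FRET biosensor (snurportin 1 IBB flanked by EYFP and cerulean), 50 nM, with compound 5 min, then 0.125 microM importin beta in PBS, 1 mM DTT, 0.02% Tween-20, 0.1% BSA. CFP/YFP ratio read after 45 min at room temperature; pre-read flags interference.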
# GLA inh pH 4.5: blocks human alpha-galactosidase A at pH 4.5. P06280. purified enzyme, 4-MU-alpha-Gal fluorescence, pH 4.5. activity change, negative = inhibition, % at 105 µM. 230,000 tested, under 10 active. AID 1467; inconclusive = small, poorly fitted or top-dose-only inhibition, or a rising curve; inactive = flat fitted curve, though single readings scatter; no compound was filed as active;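 also: 0% = full activity with enzyme and -100% = basal without enzyme; dose as in the result columns while the protocol names 77 µM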
# Rango dissoc inh: inhibitors of RanGTP-induced Rango-importin beta complex dissociation | O95149+P62826 | Biochemical FRET Rango-importin beta, RanGTP-induced dissociation | Potency, µM (series often up to 46.1 µM), for the others: at the highest dose activity change, negative = inhibition | actives 0.071% (n = 340,000) | AID 540253; active means falling FRET ratio curve, often poorly fitted, with flat reads before Ran was added; inconclusive means other falling curves, or compound fluorescence or quenching; inactive means flat or rising ratio curve;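 also: potency is read from the fitted curve at half-maximal effect; % of control where 0% means no effect; nearly all actives have a fitted effect of over 45% in size; -100% = wells without RanGTP and RCC1; the record marks most hits as doubtful in a second field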
#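 Rango/importin beta premix (0.1/0.25 uM final), PBS + 1 mM DTT + 0.02% Tween-20 + 0.1% BSA; cpd 5 min RT; FRET pre-read; + RanGTP-RCC1 (0.6 uM Ran, 2 mM GTP, 0.2 uM RCC1); 45 min RT; FRET post-read, ex 430, em 486/530 nm.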
# miR-21 FLuc: raises the signal of a miR-21 reporter; HeLa miR-21 FLuc reporter, luciferase, 48 h; Potency, µM (titrated, usually from 38.3 µM), for the others: at the highest dose reporter change, positive = more light; 340,000 tested, under 10 active; AID 2288; active = well fitted rising curve with a large enough effect; inconclusive = small, poorly fitted or top-dose-only effect; inactive = no such curve, though single readings can be large or run the other way;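 also: % of control where 0% means no effect; miR-21 action dims this reporter so a rising signal means less miR-21 action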
#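 Using DMEM plus 10% FBS, HeLa miR-21-FLuc cells are incubated with test compounds (final up to about 40uM) for 48 hours; firefly luciferase signal is then imaged following reagent-mediated lysis.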
# Starred values were filed as active, the others as inactive; ? = inconclusive; . = no result given; & = joins results of further samples.
SMILES,Rango-impB inh,GLA inh pH 4.5,Rango dissoc inh,miR-21 FLuc
Cc1ccc2nc(-c3ccc(NS(C)(=O)=O)cc3)cc(-c3ccccc3)c2c1,?,-15,8.9µM*,8%
Cc1ccc(-c2nnc(NC(=O)CCS(=O)(=O)c3ccccc3)o2)c(C)c1,-1.2%,.,-1%,.
CC(=O)Oc1cccc2c1C(=O)c1c(OC(C)=O)cc(C(=O)O)cc1C2=O,5.1%,6&-4,0%,10%
Cc1ccc(Cn2cnc3c(cnn3C(C)(C)C)c2=O)cc1,5.8%,-9,7%,10%
O=C(CN1c2cccc3cccc(c23)S1(=O)=O)NCCc1ccc(F)cc1,0.0%,.,-18%,.
O=C(NCc1ccc2c(c1)OCO2)C1CCN(c2nccc(C(F)(F)F)n2)CC1,1.0%,5,-30%,4%
Cc1ccc(C)n1-c1ccc(C(=O)NN=C2CCCC2)cc1,0.0%,2,5%,-10%
COc1cc(NC(=O)Cc2ccccc2OC)cc(OC)c1,0.1%,2,-6%,-9%
CCN(CC(=O)Nc1ccc2c(c1)OCCO2)C(=O)C1CC(=O)N(c2ccc(OC)cc2OC)C1 (centres undefined),?,.,-13%,.
COc1ccc(/C=C2/SC(=O)N(CCCCCC(=O)Nc3ccccc3C(=O)O)C2=S)cc1,-1.3%,-12,-12%,14%
CCCOc1ccc(C(=O)Nc2c[nH]c(=O)[nH]c2=O)cc1,-2.5%,2,19%,-10%
CCOc1ccc(CCNC(=O)C2CCN(S(=O)(=O)N3CCCCC3)CC2)cc1OCC,-4.7%,0,18%,-11%
COc1cc(/C=N/NC(=O)Cc2ccccc2)cc(OC)c1OC,-1.4%,.,-24%,0%
COc1cc(NC(=O)c2c(-c3ccccc3Cl)noc2C)c2ncccc2c1,2.0%,.,?,.
Cc1cc(C)c(C#N)c(Oc2ccc(O)cc2)n1,0.1%,-1,0%,-7%
CCc1nc(SCC(=O)c2cccc([N+](=O)[O-])c2)n[nH]1,4.6%,1,-7%,-2%
CC1=CC(C)(C)N(C(=O)CSc2nnc(-c3ccccc3)o2)c2ccc(C)cc21,-1.0%,-3,8%,1%
CCOC(=O)CNC(=S)N(Cc1cccs1)C1CCCC1,-2.5%,0,6%,2%
O=C(CNS(=O)(=O)c1ccc(Br)s1)NCc1ccc2c(c1)OCO2,3.6%,-1,3%,-10%
COc1cc2nc(C3CCC3)n(NC(=O)C3CCC3)c(=O)c2cc1OC,2.6%,-1,-4%,1%
CCCCn1c(N)c(N(Cc2ccccc2OC)C(=O)COc2ccc(C)cc2)c(=O)[nH]c1=O,-3.9%,.,-6%,.
CCn1c(C)nc2cc(C(=O)N=Nc3c(O)[nH]c4ccccc34)ccc21,.,-5,.,-21%
COCc1cccc(NC(=O)Cc2cccc3ccccc23)c1,3.5%,2,?,-13%
Cc1cccc2c(SCC(=O)NCC3CCCO3)nc(-c3ccc(F)cc3)nc12 (centres undefined),4.0%,13,-11%,0%
COc1ccc(S(=O)(=O)NCCc2ccncc2)cc1,0.0%,.,13%,1%

# Next entries.
SMILES,Rango-impB inh,GLA inh pH 4.5,Rango dissoc inh,miR-21 FLuc
COc1ccc2[nH]c(=O)c(CN(CCN3CCCC3)C(=O)Nc3ccccc3Cl)cc2c1,4.8%,5,-3%,18%
O=S(=O)(c1cccs1)N1CCN(c2ccc(Cl)cc2)CC1,-1.1%,.,35%,?
O=C(N/N=C/c1sc2ccccc2c1O)c1cccc2ccccc12,?,-1,?,-3%
CCn1c(C)nc2cc(C(=O)NNC(=S)Nc3ccccc3)ccc21,3.0%,4,-10%,-85%
Cc1cc2oc(=O)cc(CN3CCCCC3)c2cc1O,1.1%,.,-8%,-40%
COc1ccc(/C=C/C(=O)NC(=S)Nc2ccc(S(=O)(=O)Nc3cc(C)on3)cc2)cc1,1.1%,.,10%,-1%
COc1ccc(C)cc1NC(=O)C1CCCN(S(=O)(=O)c2ccc3[nH]c(=O)ccc3c2)C1 (centres undefined),-2.0%,.,12%,-8%&1%
Cc1ccc(S(=O)(=O)N2CCCN(C(C)c3nc4ccccc4c(=O)[nH]3)CC2)cc1 (centres undefined),0.4%,.,-8%,.
NS(=O)(=O)c1ccc(NC(=S)N2CCc3ccccc32)cc1,0.0%,.,5%,1%
N=c1oc2cc(O)ccc2cc1C(=O)Nc1nc2ccccc2s1,?,?,?,-75%
Cc1ccc(OCC(=O)N/N=C/C=C/c2ccco2)c(Br)c1,?,.,-19%,0%
COc1ccccc1C(=O)Nc1nnc(SCC(=O)NCC2CCCO2)s1 (centres undefined),0.1%,.,1%,-33%
O=C(N/N=C/c1cc2ccccc2nc1Cl)/C(=C/c1cccs1)NC(=O)c1ccccc1,-4.1%,-8,-4%,20%
Cc1nn(C)c(C)c1S(=O)(=O)N1CCC(C(=O)Nc2ccc3c(c2)OCCO3)CC1,-4.7%,-1,1%,-31%
Cc1cccc(-c2ncc(CN3CCN(CCC(C)C)C(CCO)C3)cn2)c1 (centres undefined),0.1%,-3,2%,-10%
CNC(=O)C1CC(=O)N(c2ccc(OCC(=O)Nc3ccccc3C)cc2)C1 (centres undefined),-1.8%,.,-8%,.
COc1ccc2oc(C(=O)NCC(c3ccco3)N(C)C)c(C)c2c1 (centres undefined),-1.2%,.,-9%,.
CC(C)(C)C(=O)Nc1nnc(CC(=O)NCc2ccccc2)s1,0.1%,5,14%,3%
CCN(CC)C(=O)c1cn(-c2cccc(OC)c2)c(=O)c2ccccc12,5.1%,.,18%,1%
CCCCCCOC(=O)CCn1[nH]c(=O)c2ccccc2c1=O,-1.2%,9,-15%,-5%
CN(C)[C@@H]1CCC[C@H]1OC(=O)C(c1ccccc1)c1ccccc1,1.4%,-3,-10%,-5%
O=C(COC(=O)c1c(F)cccc1F)Nc1ccccc1OC(F)F,0.1%,.,-5%,0%
Cc1cc(C)n2nc(C(=O)Nc3ccn(Cc4ccccc4C)n3)cc2n1,0.2%,?,-9%,-9%
CC(Sc1nnc(COc2ccc([N+](=O)[O-])cc2)n1-c1ccccc1)C(=O)O (centres undefined),0.2%,7,0%,-1%
Cn1c(CCC(N)=O)nnc1SCC(=O)Nc1cc(S(=O)(=O)N2CCCC2)ccc1Cl,1.4%,.,2%,.

# 2 of the compounds above, with values ahead of the structure.
Rango-impB inh,GLA inh pH 4.5,Rango dissoc inh,miR-21 FLuc,mol
0.1%,.,-5%,0%,O=C(COC(=O)c1c(F)cccc1F)Nc1ccccc1OC(F)F
0.2%,?,-9%,-9%,Cc1cc(C)n2nc(C(=O)Nc3ccn(Cc4ccccc4C)n3)cc2n1

# (list continues)
SMILES,Rango-impB inh,GLA inh pH 4.5,Rango dissoc inh,miR-21 FLuc
COC(=O)/C=C1/SC(=NC(=O)c2ccc(OC)cc2)NC1=O,-0.3%,.,-4%,-1%
CCc1c(C#N)c(SCCC(=O)Nc2ccc(F)cc2)nc2c1C(=O)CC(C)(C)C2,0.3%,-11,28%,30%
COc1ccc(C(CC(=O)O)NS(=O)(=O)c2ccc(C)cc2)cc1OC (centres undefined),1.9%,-6,9%,2%
CN(C(=O)c1cc(S(=O)(=O)N2CCOCC2)cs1)c1ccccc1,2.8%,.,7%,-5%
CCOc1ccc(N2C(=O)Nc3ccccc3C2(O)C(=O)NCc2ccccc2)cc1 (centres undefined),1.8%,-6,-10%,2%
CCC(C)Sc1cccc(-c2nc3ccc(C)cn3c2NC2CCCCC2)c1 (centres undefined),?,.,-2%,.
COc1ccccc1N(CC(=O)NCC1CCCO1)C(=O)CCC(=O)Nc1cc(C)on1 (centres undefined),-0.7%,.,-15%,-2%
CC1(C)C(c2ccccc2)=NC(c2ccc(Br)cc2)N1O (centres undefined),8.3%,-1,12%,-2%
CCOC(=O)Cc1csc(NC(=O)CSc2nc3cccnc3n2CC)n1,0.6%,1,22%,-8%
O=C(O)CCCNC(=O)c1cncc(O)c1,7.7%,4,18%,1%
COC(=O)c1ccc(OCC(=O)Nc2nn(-c3ccccc3)nc2C(N)=O)cc1,1.1%,0,-15%,-3%
Cn1c(SCC(=O)Nc2nccs2)nnc1-c1cccnc1,-2.7%,.,10%,.
S=C(c1ccc(N2CCOCC2)cc1)N1CCOCC1,-3.5%,-2,2%,-4%
Cc1ccccc1C(=O)N(C)Cc1ccccc1,1.9%,-6,-8%,2%
CC(=O)Nc1cccc(NS(=O)(=O)Cc2ccc(Cl)cc2)c1,5.4%,1,18%,1%
O=S(=O)(Nc1ccccn1)c1ccc(Oc2ccccc2)cc1,-2.4%,0,1%,-6%
COc1cc(C(=O)N/N=C(\C)Cc2ccccc2)cc(OC)c1OC,-3.9%,12,-7%,19%
O=C(CN1C(=O)/C(=C/c2ccc(C(F)(F)F)cc2)Sc2ccccc21)NCCCN1CCOCC1,-4.7%,.,11%,-3%
CNC(=S)NCc1ccc(OC)cc1,-4.6%,5,0%,-3%
CC(=O)Nc1ccc(S(=O)(=O)Nc2nc(C)cc(-n3nc(C)cc3C)n2)cc1,0.0%,5,3%,0%
CCOc1cc(S(=O)(=O)N2CCN(Cc3ccccc3)CC2)ccc1Br,1.2%,-4,1%,-15%
c1cnc(Oc2ccc(-c3nnco3)cc2)cn1,-3.8%,-1,-3%,-3%
Cc1ccc(CNC(=O)/C=C/c2ccc(Br)o2)cc1,1.0%,-4,0%,-2%
CN1CCN(C(=O)c2cc(Cl)ccc2NC(=O)c2ccc(Cl)cc2Cl)CC1,4.1%,.,-2%,-3%
O=[N+]([O-])c1cc(S(=O)(=O)N2CCCCC2)ccc1NCc1cccc(Cl)c1,0.3%,-6,-11%,-5%

# For convenience, part of the list above.
SMILES,Rango-impB inh,GLA inh pH 4.5,Rango dissoc inh,miR-21 FLuc
COC(=O)/C=C1/SC(=NC(=O)c2ccc(OC)cc2)NC1=O,-0.3%,.,-4%,-1%
CCc1c(C#N)c(SCCC(=O)Nc2ccc(F)cc2)nc2c1C(=O)CC(C)(C)C2,0.3%,-11,28%,30%
COc1ccc(C(CC(=O)O)NS(=O)(=O)c2ccc(C)cc2)cc1OC (centres undefined),1.9%,-6,9%,2%
CN(C(=O)c1cc(S(=O)(=O)N2CCOCC2)cs1)c1ccccc1,2.8%,.,7%,-5%
CCOc1ccc(N2C(=O)Nc3ccccc3C2(O)C(=O)NCc2ccccc2)cc1 (centres undefined),1.8%,-6,-10%,2%
CCC(C)Sc1cccc(-c2nc3ccc(C)cn3c2NC2CCCCC2)c1 (centres undefined),?,.,-2%,.

# Carrying on.
SMILES,Rango-impB inh,GLA inh pH 4.5,Rango dissoc inh,miR-21 FLuc
O=C(NC(Cc1ccccc1)C(=O)NC(Cc1ccccc1)C(=O)O)c1ccccc1 (centres undefined),0.7%,4,2%,0%
O=C(Nc1ccccc1)/C(=C/c1ccccc1)c1ccccc1,?,-4,26%,-2%
CN1CCN(S(=O)(=O)c2cccc(S(=O)(=O)c3ccc(Cl)c(Cl)c3)c2)CC1,-2.5%,.,-19%,4%
O[C@@H]([C@H](O)[C@H](O)CBr)[C@H](O)CBr,-2.1%,.,1%,.
CCCN1CCN(CCNC(=O)Nc2cc(C)ccc2C)CC1,-0.6%,.,9%,4%
CCN1CCOC(CC(=O)Nc2cccc([N+](=O)[O-])c2)C1=O (centres undefined),0.2%,0,10%,-4%
C[C@@H]1CN([C@H](C)CO)C(=O)c2cc(NC(=O)Nc3cccc4ccccc34)ccc2O[C@H]1CN(C)Cc1ccc(C(F)(F)F)cc1,-2.3%,.,9%,.
CCCc1c(C(=O)N/N=C(\C)CCc2ccccc2)nnn1-c1nonc1N,5.7%,.,1%,-3%
COc1ccccc1C1(CC(=O)N2CCCCC2)CCOC(C(C)C)C1 (centres undefined),-0.7%,3,-3%,9%
Cc1ccc(N2CC(C(N)=O)CC2=O)cc1 (centres undefined),5.7%,-1,-1%,0%
C=C1CCN([C@H](C(=O)NCc2ccc(Cl)c(Cl)c2)C(C)C)S(=O)(=O)c2ccccc21,4.2%,-18,-7%,-1%
CN(C(=O)COC(=O)c1cc(NS(=O)(=O)c2cc([N+](=O)[O-])ccc2Cl)ccc1O)C1CCCCC1,-0.1%,-8,-6%,0%

# These rows are one share of the data (hit frequency here may not be typical).
